# AmpC nodet inh: inhibitors of E. coli AmpC beta-lactamase without detergent | Potency, µM (highest dose often 28.7 µM), for inactives: at the top dose activity change, negative = inhibition | 1.8% of 71,000 active | AmpC nitrocefin hydrolysis, absorbance 480 nm, no detergent; potencies from a single point are estimates | AID 585 | P00811; active = falling curve, for most hits resting on a single point; inconclusive = weak or doubtful change; inactive = flat or rising curve; further: % of control where 0% means no effect; about half of the hits show no inhibition at the top dose; a quarter of the inactives give rising signals
# Target sequence (P00811 whole entry, looked up): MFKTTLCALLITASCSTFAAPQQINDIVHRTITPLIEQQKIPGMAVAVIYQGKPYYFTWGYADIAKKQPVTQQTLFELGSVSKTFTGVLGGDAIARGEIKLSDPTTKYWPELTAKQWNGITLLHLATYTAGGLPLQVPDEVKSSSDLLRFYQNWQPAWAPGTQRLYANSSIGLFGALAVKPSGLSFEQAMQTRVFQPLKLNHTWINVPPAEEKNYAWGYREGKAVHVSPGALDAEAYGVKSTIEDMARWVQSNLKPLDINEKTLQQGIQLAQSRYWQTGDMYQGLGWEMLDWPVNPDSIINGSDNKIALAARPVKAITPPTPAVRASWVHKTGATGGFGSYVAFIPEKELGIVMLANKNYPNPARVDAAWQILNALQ
#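 Enzyme, pH 7.0 phosphate. Compound titrations were pre-incubated with AmpC for 15 min at room temperature before nitrocefin (stock 800 uM) addition; product formation was recorded at 480 nm every 20 s for 4 min.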
# Starred values were filed as active, the others as inactive; ? = inconclusive; & = joins results of further samples; [ ] = another dose, or the depositor's remark. Potency means the concentration at half of the fitted maximal effect. A portion of the library; the hit share may differ from the screen's.
SMILES,AmpC nodet inh
O=c1c(-c2cccs2)nc2cnc(N3CCNCC3)nc2n1CCc1ccccc1,83%
CCCCOc1ccc(C(O)(CCC)CCN2CCOCC2)cc1 (stereo not drawn),104%
C=C(C)Cn1c(SCCCO)nc2c1c(=O)[nH]c(=O)n2C,-8%
N#CC1=C(N)Oc2n[nH]c(-c3cccs3)c2C1c1cccs1 (stereo not drawn),?
CSc1nnc2c3cc(C)ccc3n(Cc3ccccc3)c2n1,-18%
CCOc1ccc(C(=O)Nc2ccc(N3CCN(C)CC3)cc2)cc1Br,40%
COc1ccc(-n2c(=O)c(C)nc3cnc(N4CCNCC4)nc32)cc1,42%
CC(=O)c1ccc(OC(=O)C2CC(=O)N(c3cccc(C)c3)C2)cc1 (stereo not drawn),17%
COc1ccc(C2C(C(=O)N3CCN(c4ccccc4)CC3)c3ccccc3C(=O)N2C)cc1OC (stereo not drawn),123%
Fc1ccc(C(OCCCc2cnc[nH]2)c2ccc(F)cc2)cc1,21%
Cc1csc(NC(=O)c2ccc(C)c(S(=O)(=O)N3CCCCC3)c2)n1,16%
Clc1ccc(-c2nnc(-c3cccc4ccccc34)o2)cc1Cl,1%[5.75 µM]
CSCC[C@H](NC(=O)OC(C)(C)C)C(=O)N1CCC(C(=O)N[C@@H](C)C(=O)O)CC1,-1%
CCn1c(C)c(C(=O)O)c2cc(OC)ccc21,-7%
CCN(C(=O)CN1CCN(c2ccccc2)CC1)c1c(N)n(Cc2ccccc2)c(=O)[nH]c1=O,-2%
CC1S/C(=C(\C#N)C(=O)NCc2ccco2)N(Cc2ccco2)C1=O (stereo not drawn),-8%
CCOC(=O)C1CCN(c2cc(=O)n(C3CCCCC3)c(=O)[nH]2)CC1,19%
N#CC1=C(N)Oc2n[nH]c(-c3cccs3)c2C1c1ccco1 (stereo not drawn),-15%
N#CC(C#N)=c1ccc2c(c1)NC1(CCCCC1)N=2,4%
CCOC(=O)CNC(=O)c1nn(-c2cccc(OC)c2)c(=O)c2ccccc12,36%
CCOC(=O)c1nn(-c2ccccc2C)c(=O)c(C#N)c1C,18%
CN1C(=O)CC(C(=O)Nc2ccc(F)cc2)SC1=Nc1ccc2c(c1)OCO2 (stereo not drawn),11%
Cc1cccc(N2CCN(C(=O)c3cc4n(n3)C(C(F)(F)F)CC(c3ccco3)N4)CC2)c1C (stereo not drawn),96%
Cn1ccnc1C(=O)c1cc(=O)c2ccccc2o1,-8%
CCN(CC)CCNC(=O)Cn1nc(Cc2cccnc2)c2ccccc2c1=O,4µM*[single pt active]

# 2 entries picked at random from the list so far:
SMILES,AmpC nodet inh
N#CC1=C(N)Oc2n[nH]c(-c3cccs3)c2C1c1cccs1 (stereo not drawn),?
CCCCOc1ccc(C(O)(CCC)CCN2CCOCC2)cc1 (stereo not drawn),104%

# Carrying on.
SMILES,AmpC nodet inh
O=C1c2ccccc2NC(c2cnc3ccccc3n2)N1O (stereo not drawn),-12%
CC(=NCc1cccnc1)c1c(O)n(Cc2ccccc2)c(=O)[nH]c1=O,4%
CSc1cccc(NC(=O)Nc2ccccc2)c1,-18%
Cc1nn(Cc2ccccc2)c2c1C(c1ccco1)C(C#N)=C(N)O2 (stereo not drawn),-5%
COCCn1cnnc1SCC(=O)c1ccc(S(=O)(=O)N2CCCC2)cc1,44%
COc1ccc(OC)c(C2C(C(=O)Nc3ccc(F)cc3)=C(C)Nc3nc(CCCO)nn32)c1 (stereo not drawn),52%
CN(C)c1ncc2nc(-c3cn(C)c4ccccc34)c(=O)n(C[C@H]3CCCO3)c2n1,4%
C=CCOC(=O)C1=C(C)Nc2nnnn2C1c1cc(OC)ccc1OC (stereo not drawn),14%
COc1nc(N)nc2c1ncn2[C@@H]1C[C@H](O)[C@@H](CO)O1,0%[5.75 µM]
CN(Cc1ccccc1)Cc1ccccc1F,-6%
O=C(O)[C@H]1CCCNC1,16%&7%
O=C1CN(C(=O)c2ccc(Br)o2)C(c2ccc(F)cc2)c2cc(Cl)ccc2N1 (stereo not drawn),5%
CCN(CC)CCNC(=O)CS(=O)Cc1nc(-c2ccc(C)cc2)oc1C (stereo not drawn),-1%
C=C(C)c1cccc(C(C)(C)NC(=O)NC2CN3CCC2CC3)c1 (stereo not drawn),11%
COc1ccc(CC(=O)NCc2nnc(SCC(=O)N3CCN(c4ccccc4)CC3)n2C)cc1,70%
O=C(NCCCn1ccnc1)Nc1cccc(Cl)c1,-8%
CCCC(=O)Nc1cc(C)c(NC(=O)c2ccncc2)cn1,-15%
Cc1cc(N2CCN(C(=O)c3ccco3)CC2)n2nc(C)c(-c3ccc(Cl)cc3)c2n1,100%
CCc1nnc(NC(=O)c2cccs2)s1,4%
COc1cc2c(cc1OC)-c1cc3ccc(OC)c(OC)c3c[n+]1CC2,15%[12.8 µM]
CCOC(=O)c1c(C)[nH]c(C)c1C(=O)CSc1nnnn1-c1ccccc1,20%
CC(C)CN(C(=O)COC(=O)Cc1n[nH]c(=O)c2ccccc12)C1CCS(=O)(=O)C1 (stereo not drawn),7%
Cc1ccc(-n2c(-c3ccncc3)nnc2-c2ccco2)cc1,20%
Cc1ccnc(N2C(=O)c3ccccc3C2Nc2cccc(C)c2C)c1 (stereo not drawn),13%
Cn1c(=O)cc(N2CCc3ccccc32)[nH]c1=O,38%

# (next part)
SMILES,AmpC nodet inh
O=C(NC12CC3CC(CC(C3)C1)C2)C1CCCN1C(=O)NC1CCCCC1 (stereo not drawn),44%
CCc1nc(N2CCOCC2)c(C#N)c2c1COC(C)(C)C2,36%
CC(=O)Nc1cccc(NC(=O)CCn2cnc3cc(C)c(C)cc32)c1,35%
CCOC(=O)c1c(-c2ccc(OC)cc2)oc2ccc(OC(=O)N(C)C)cc12,102%
CCOC(=O)N1CCC(N2C(=O)c3ccc(C(=O)Nc4ccc(F)cc4F)cc3C2=O)CC1,2%
O=C(c1ccc2c(c1)OCO2)N1CCCCC1,11%
CCOc1ccc2nc(NC(=O)CSc3nnc(-c4ccncc4)n3CC3CCCO3)sc2c1 (stereo not drawn),124%
C=CCN(CC=C)C(=O)c1ccncc1,1%
O=C(NC1CC1)c1scc2c1OCCO2,13%
C[C@@]12CCC(=O)C[C@@H]1CC(=O)[C@H]1[C@H]3CCC[C@]3(C)C(=O)C[C@@H]12 (tested in a mixture with another compound),-7%[12.8 µM]
COc1ccc(-c2nc(-c3ccc(NC(=O)c4ccncc4)cc3)no2)cc1OC,58%
CCCCNc1nc(C)nc2c1nc(-c1ccccc1)n2CC1CCN(C)CC1,56%
COc1cc(S(=O)(=O)N2CCCC3(CCCCC3)C2)ccc1-n1cnnn1,95%
Cc1cc(NC(=O)COc2ccc(Cl)cc2Cl)n(CCC#N)n1,22%
NC(=O)c1cnn2c(C(F)(F)F)cc(-c3ccc(F)cc3)nc12,4%
Cn1c(C(=O)N2CCCC(C(=O)O)C2)cc2sccc21 (stereo not drawn),-5%
CCC1CCCCN1C(=O)Cn1c(C(=O)OC)cc2sc(Cl)cc21 (stereo not drawn),12%
Cn1c(NCC2CCCO2)nc2c1c(=O)n(Cc1ccccc1)c(=O)n2C (stereo not drawn),44%
O=C(O)CCC(=O)c1ccc2c(c1)OCCCO2,-4%
CCC(Sc1nncn1C)C(=O)Nc1ccccc1OC (stereo not drawn),4%
O=C(Nc1cccc(NC(=O)c2ccco2)c1)c1ccc2c(c1)OCO2,-3%
Cc1ccc(-n2nnc3c(=O)oc4ccccc4c32)cc1,-10%
COc1cc(C(=O)Nc2nc3ccc(S(=O)(=O)N4CCOCC4)cc3s2)cc(OC)c1OC,119%
O=C(c1ccco1)N1CCN(C(=O)c2cc(-c3ccccn3)nc3ccc(Cl)cc23)CC1,107%
CC(C)CCn1c(SCC(=O)OCn2nnc3ccccc3c2=O)nc2ccccc2c1=O,43%

# Other records.
SMILES,AmpC nodet inh
COc1cccc(-c2nnc(NC(=O)Cc3cccs3)s2)c1,-8%
COCCSc1nnc(NC(=O)CSCc2ccccc2)s1,-21%
CCc1ccccc1NS(=O)(=O)c1cc(C)ccc1OC,10%
O=C(c1ccncc1)N1CCC[C@@]2(CCN(c3ccccn3)C2)C1,8%
COC(=O)c1c(NC(=O)CC2SCC(C(=O)OC)NC2=O)sc2c1CCCC2 (stereo not drawn),132%
N[C@H](Cn1ccc(=O)c(O)c1)C(=O)O,-4%
CCNc1ncc2nc(C)c(=O)n(Cc3cccs3)c2n1,15%
COc1ccc(OC)c(-c2nc3c(C)n[nH]c(=O)c3[nH]2)c1,13%
CCOc1cccc2cc(C(=O)Nc3nccs3)c(=O)oc12,-1%
Cc1ccc(Cl)cc1N1CCN(CCN)CC1,1%
CN(C)c1ccc(CNn2cnnc2SCc2ccccc2F)cc1,36%
O=C(O)c1cccc2cccc(-c3cccc4cccc(C(=O)O)c34)c12,-16%[5.75 µM]
Cc1ccc(C)n1-c1ccc(C(=O)N2CCOCC2)cc1,34%
CCOC(=O)c1ccc(Nc2ncnc3nc[nH]c23)cc1,-12%
CCOC(=O)N1CCC(NC(=O)CCN2C(=O)C3C4C=CC(C4)C3C2=O)CC1 (stereo not drawn),11%
O=C(c1cc(C(F)(F)F)cc(C(F)(F)F)c1)N1CCC2(CC1)CN(c1ncccn1)C2,-12%
O=C(CSc1nc2c(c(=O)n1-c1ccc(Br)cc1)SCC2)Nc1nccs1,-23%
COc1ccc(N2CCN(CCCNC(=O)CC3Oc4ccc(C)cc4NC3=O)CC2)cc1 (stereo not drawn),4µM*[single pt active]
CC1(C(=O)O)CCC(C(=O)Nc2ccccc2)C1(C)C (stereo not drawn),-4%
O=C1CC(Sc2nnnn2C2CCCCC2)C(=O)N1c1ccccc1 (stereo not drawn),-4%
Cn1nnnc1SCC(=O)Nc1ccccc1Cl,-1%
O=C1C2C3C=CC(C3)C2C(=O)N1c1cccc2cccnc12 (stereo not drawn),2%
Cn1nnnc1SCC(=O)N1c2ccccc2Sc2ccc(Cl)cc21,34%
Nc1nc(SCC(=O)NCc2ccccc2)n[nH]1,-7%
CCOC(=O)N1CCN(C2CC(=O)N(c3ccc(C)cc3)C2=O)CC1 (stereo not drawn),8%

# Structures shown so far that have a furan ring, fused or not:
SMILES,AmpC nodet inh
CC1S/C(=C(\C#N)C(=O)NCc2ccco2)N(Cc2ccco2)C1=O (stereo not drawn),-8%
N#CC1=C(N)Oc2n[nH]c(-c3cccs3)c2C1c1ccco1 (stereo not drawn),-15%
Cc1cccc(N2CCN(C(=O)c3cc4n(n3)C(C(F)(F)F)CC(c3ccco3)N4)CC2)c1C (stereo not drawn),96%
Cc1nn(Cc2ccccc2)c2c1C(c1ccco1)C(C#N)=C(N)O2 (stereo not drawn),-5%
O=C1CN(C(=O)c2ccc(Br)o2)C(c2ccc(F)cc2)c2cc(Cl)ccc2N1 (stereo not drawn),5%
Cc1cc(N2CCN(C(=O)c3ccco3)CC2)n2nc(C)c(-c3ccc(Cl)cc3)c2n1,100%
Cc1ccc(-n2c(-c3ccncc3)nnc2-c2ccco2)cc1,20%
CCOC(=O)c1c(-c2ccc(OC)cc2)oc2ccc(OC(=O)N(C)C)cc12,102%
O=C(Nc1cccc(NC(=O)c2ccco2)c1)c1ccc2c(c1)OCO2,-3%
O=C(c1ccco1)N1CCN(C(=O)c2cc(-c3ccccn3)nc3ccc(Cl)cc23)CC1,107%

# Continued:
SMILES,AmpC nodet inh
Cc1ccc(S(=O)(=O)N2CCN(C(=O)c3cccc(F)c3)CC2)cc1,28%
CN(C)CCCCl,1%
C/C(=C1/SC(N2CCOCC2)=NC1=O)c1ccc(Cl)cc1,42%
Cn1cc(/C=N/n2cnc3scc(-c4ccc(Cl)cc4)c3c2=O)c2ccccc21,6%
Nc1cc(N)nc(SCC(=O)Nc2ccc(Br)cc2Cl)n1,-2%
COc1c(Cl)cc(-c2noc(C)c2C(=O)NCc2ccc3c(c2)OCO3)cc1Cl,-19%
CCCCC(=O)Nc1nnc(C)s1,-1%
COc1ccc(CCNS(=O)(=O)c2cn(C)c(=O)n(C)c2=O)cc1OC,4%
COCc1cc(C)nc(SCC(=O)Nc2ccc3c(c2)OCO3)c1C#N,-5%
CC(=O)NCC(=O)N(Cc1ccco1)C1(C(=O)NC2CCCCC2)CCCCC1,28%
Cc1cccc(CNc2ncncc2-c2ccc3c(c2)OCO3)c1,33%
COc1cc2c(cc1OC)-c1cc(NC3CCCC3)nc(=O)n1CC2,18%
Fc1ccc(Nc2nc(-c3cccnc3)nc3ccccc23)cc1,25%
COc1ccc(S(=O)(=O)Nc2ccc(S(=O)(=O)Nc3nc(C)cc(C)n3)cc2)cc1OC,-6%
O=C(CSc1nc2c(c(=O)n1-c1ccc(Br)cc1)SCC2)NCc1ccco1,?
Cc1ccccc1Cn1nnc(C(=O)Nc2cccc(C)c2C)c1N,-4%
C/C=C/c1ccc(OCCCNCC(C)O)c(OC)c1 (stereo not drawn),16%
COc1ccc(-c2ccc(SCC(=O)N3CCOCC3)nn2)cc1OC,5%
CCCOCC(O)COc1ccccc1C(=O)N1CCOCC1 (stereo not drawn),2%
CC(=O)C(C)=O,-4%&4%
Cc1nc(N2CCN(S(=O)(=O)c3ccc(F)cc3)CC2)c2c(C)c(C)sc2n1,16%
Cc1cccc(-c2cc3nc(C)cc(NCCCN(C)C)n3n2)c1,35%
COC(=O)c1cc(COC(=O)c2ccc(OC)c(S(=O)(=O)N3CCCC3)c2)oc1C,114%
Clc1cc(Cl)c2nc(N3CCOCC3)sc2c1,22%
CC(C)NC(=O)N1CC[C@@]2(CCCN(C(=O)c3cnccn3)C2)C1,6%
Cc1onc(-c2ccccc2Cl)c1C(=O)Nc1ccc(-n2nncc2-c2ccco2)cc1,-10%
COc1ccccc1-c1ccc(Nc2cccc(C(C)=O)c2)nn1,-20%

# Screening results from PubChem BioAssay.
